Bioassay records (PubChem BioAssay)
D2 agonist: agonists of human D2 dopamine receptor (beta-arrestin). P14416. DiscoveRx PathHunter D2 beta-arrestin, luminescence, 90 min; 100% = 57 uM dopamine signal. activation, % (concentration not given with the values). 0.084% of 360,000 active. AID 624465; in the data active = activation above about 40%; inconclusive = about 15% to 40%; inactive = below about 15%; note: compound concentration not given in the record; the text of the record calls up to 30% inactive
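Agonist mode: compounds alone added to overnight-plated D2 PathHunter cells for 90 min at 37 C, with 57 uM final dopamine (EC100) defining full response. Beta-arrestin recruitment detected by chemiluminescent reagent, read after 1 h at ambient temperature.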
PINK1 modulator: PINK1 expression modulation; PINK1 immunofluorescence, high-content cytometry, 24 h; Potency, µM (highest dose often 76.6 µM), for inactives: at the top dose activation (PINK1 increase), hits mostly activators; 0.2% of 410,000 active; active = well fitted activation curve with a large enough effect; inconclusive = small, poorly fitted or top-dose-only effect; inactive = flat fitted curve, though single readings scatter; cell line not stated here;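 note: potency is the fitted concentration of half-maximal effect; % of control where 0% means no effect; nearly all actives have a fitted effect of over 65% in size; a mitochondrial uncoupler was the plate control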
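Readout is PINK1 immunofluorescence, quantified alongside mitochondrial, cell and nuclear markers by laser-scanning microplate cytometry. Cells from a stable line were exposed to compound titrations (5 concentrations) for 24 hours, with CCCP controls.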
Six1-Eya2 blk: inhibitors of human Six1/Eya2 interaction; activity change, % (test concentration not listed); AlphaScreen GST-Six1/His-Eya2 binding, biochemical; stronger effect = lower value; control for the full effect not named in the record; 0.56% of 360,000 active; Q15475+O00167; in the data active = activity change below about -65%; inconclusive = about -30% to -65%; inactive = above about -30%; note: % is set by controls: 0 for no effect and ±100 for the full control effect; compound concentration not given in the record
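Compounds are tested against tagged Six1 and Eya2 proteins bridged by glutathione donor and nickel acceptor beads; after a one-hour incubation at 37 °C without light, AlphaScreen emission is recorded.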
CtBP-E1A inh: inhibitors of CtBP/E1A interaction | AlphaScreen GST-E1A/His-CtBP binding, 1536-well; stronger effect = lower value; control for the full effect not named in the record | activity change, % (concentration not given with the values) | 0.49% of 340,000 active; in the data active means activity change below about -65%; inconclusive means about -30% to -65%; inactive means above about -30%; note: % is set by controls: 0 for no effect and ±100 for the full control effect
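In 5 uL wells, 23 nL compound meets equimolar GST-E1A and His-CtBP (5X stock 125 nM each) for 2 h, 37 °C. Beads (5X, 50 ug/mL) then 1 h, 37 °C, dark.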
Sfp inh: inhibitors of Bacillus subtilis Sfp phosphopantetheinyl transferase | 3.5% of 310,000 active | AID 1490 | Biochemical Sfp PPTase activity, qHTS | Potency, µM, inactives show max response, negative = inhibition, actives largely listed as inhibitors; active = well fitted inhibition curve with a large enough effect; inconclusive = small, poorly fitted or top-dose-only effect, or another doubt; inactive = no such curve, though single readings can be large or run the other way;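 note: the enzyme is Sfp with the accession as filed and its product quenches rhodamine fluorescence; potency is the fitted concentration of half-maximal effect; 0% = enzyme reaction without inhibitor and -100% = no enzyme wells; top concentration of the series not given in the record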
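Fluorescence-quenching assay with 15 nM Sfp, 5 uM rhodamine-CoA and 12.5 uM BHQ-2-labelled ybbR peptide in pH 7.6 Hepes/MgCl2 buffer. Enzyme was pre-incubated with compound for 15 min at room temperature. Rate was taken from the 30-min fluorescence change (525/598 nm).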
TRPV1 potentiator: enhances activation of the human vanilloid receptor TRPV1; potentiation, % at 8.33 µM; TRPV1-expressing cells, Fluo-8 calcium influx, capsaicin EC20 potentiation; host cell line not named in the record; control for the full effect not named in the record; 0.02% of 320,000 active; active means potentiation above 80%; inconclusive means 30% to 80%; inactive means below 30%; note: 0% is about no effect
Target sequence (Q8NER1 whole entry, looked up): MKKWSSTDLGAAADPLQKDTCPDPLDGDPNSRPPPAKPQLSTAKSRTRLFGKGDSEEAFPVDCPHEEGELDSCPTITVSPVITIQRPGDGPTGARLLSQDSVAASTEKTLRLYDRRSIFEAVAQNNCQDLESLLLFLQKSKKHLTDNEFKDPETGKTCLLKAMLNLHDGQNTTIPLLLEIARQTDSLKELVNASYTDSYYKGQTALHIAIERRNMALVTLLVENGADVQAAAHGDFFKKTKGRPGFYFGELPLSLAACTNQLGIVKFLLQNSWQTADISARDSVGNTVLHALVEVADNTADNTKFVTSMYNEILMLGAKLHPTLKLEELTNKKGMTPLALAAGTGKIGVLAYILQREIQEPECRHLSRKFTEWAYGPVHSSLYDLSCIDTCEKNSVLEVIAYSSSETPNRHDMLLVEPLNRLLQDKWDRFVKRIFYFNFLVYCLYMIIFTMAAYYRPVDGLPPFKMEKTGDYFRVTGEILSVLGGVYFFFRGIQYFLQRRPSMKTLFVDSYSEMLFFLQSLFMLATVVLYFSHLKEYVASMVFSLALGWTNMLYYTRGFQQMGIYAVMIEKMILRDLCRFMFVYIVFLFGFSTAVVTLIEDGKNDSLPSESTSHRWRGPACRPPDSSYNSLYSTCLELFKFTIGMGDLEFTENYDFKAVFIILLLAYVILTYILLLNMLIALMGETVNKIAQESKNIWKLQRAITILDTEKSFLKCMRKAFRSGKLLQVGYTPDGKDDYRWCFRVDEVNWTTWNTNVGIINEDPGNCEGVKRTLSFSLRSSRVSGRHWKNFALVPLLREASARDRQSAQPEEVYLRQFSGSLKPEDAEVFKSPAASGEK
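Cells expressing TRPV1 were dye-loaded with Fluo-8 and read kinetically: 10 s baseline, 3 min after compound (agonist portion), then 2 min after EC20 capsaicin (allosteric enhancer portion). Calcium-bound dye fluorescence at 480/520 nm.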
D2 potentiator: human D2 receptor positive allosteric modulation; DiscoveRx D2 beta-arrestin cells, luminescence, 90 min; 100% = 57 uM dopamine signal; potentiation, % (test concentration not listed); 0.23% of 360,000 active; active = potentiation of 50% or more; inconclusive = 30% to 50%; inactive = 30% or less;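 note: compound concentration not given in the record; tested on top of an EC20 dose of dopamine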
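D2 cells co-treated with compound plus 50 nM dopamine (EC20) for 90 min at 37 deg C to detect potentiation. Beta-arrestin recruitment was read as enzyme-fragment luminescence after 1 h at ambient temperature. Full response was set by 57 uM dopamine.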
Numbers without * were called inactive; ? = inconclusive; nt = no result given; & = joins results of further samples; [ ] = another dose, or the depositor's remark.

SMILES | D2 agonist | PINK1 modulator | Six1-Eya2 blk | CtBP-E1A inh | Sfp inh | TRPV1 potentiator | D2 potentiator
CN(Cc1ccccc1)C(=O)c1ccc(NC(=O)Cc2ccc(NC(=O)C3CCN(C(=O)C4CCC4)CC3)cc2)cc1 | -1.2 | 1.3% | 2 | -1 | nt | nt | nt
C=CCn1c(SCc2ccc(F)cc2)nc2c1c(=O)[nH]c(=O)n2C | 1.3 | 1.4% | -2 | 2 | -17% | 2 | -5
OCCNCCNCc1ccccc1OCc1ccccc1 | -1.4 | 0.0% | 6 | nt | 10% | 6 | -4
CN(Cc1ccccc1)C(=O)c1nc2ccccn2c1CNCCOc1cccnc1 | -4.4 | -0.7% | 5 | nt | -5% | 1 | -9
Cc1cc(C(=O)Nc2ccc(F)c(Cl)c2)on1 | -3.1 | 0.1% | -2 | -1 | 27% | -7 | -4
CC(NC(=O)NC1CCCCC1)C(c1cccs1)N1CCOCC1 (stereo not drawn) | -4.5 | -0.3% | 4 | 8 | 35%[activator] | -5 | -5
NC1=NC2(CCCC2)N=C(Nc2ccccc2)N1 | -2.7 | 0.6% | 9 | 0 | 3% | 6 | -7
CCOc1ncccc1C(=O)NCCCSc1ccccc1 | 1.5 | 1.6% | 9 | -5 | 3% | 12 | -5
O=C(CNC(=O)c1ccccc1)Sc1ccccc1 | -8.2 | 6.0% | 1 | 3 | nt | nt | -2
COc1ccc(S(=O)(=O)N2CCN(Cc3ccc(Cl)cc3)CC2)cc1 | -1.3 | nt | -1 | 1 | -14% | -7 | -13
CC1CCc2sc3c(c2C1)c1ncnn1c(=O)n3CC(=O)c1ccc(Br)cc1 (stereo not drawn) | -1.3 | 1.2% | 13 | 0 | nt | nt | -9
COc1cccc(N2CCN(c3ccc(N4C(=O)CCC4=O)cc3[N+](=O)[O-])CC2)c1 | -3.2 | 0.4% | -11 | -13 | -2% | 23 | -6
Cc1cc(NC(=S)NC(=O)c2ccco2)c2ccccc2n1 | 0.2 | 3.3% | -7 | -1 | 28µM* | 2 | -8
O=C(Nc1ccccc1)Nc1nnc(CSCc2ccccc2Cl)s1 | 7.8 | ? | -1 | 1 | 6% | 7 | 14
CCOc1ccc(NC(=O)CSCC(=O)O)cc1 | -2.0 | nt | 2 | 5 | 13% | -6 | -1
O=c1cc(N2CCN(c3ccc(F)cc3)CC2)[nH]c(=O)n1Cc1ccc(F)cc1 | -3.8 | 24% | 3 | 3 | 8% | 9 | -5
CC(=O)c1ccc(NC(=O)C2(S(=O)(=O)c3ccccc3)CC2)cc1 | -3.8 | 1.9% | -3 | 1 | 18% | -4 | -3
CCOC(=O)CCc1c(C)n(CC)c2ncnn2c1=O | -3.8 | 1.2% | 9 | -13 | 2% | 0 | -4
C=CCN1C(=O)NC2(O)C(=O)c3ccccc3C12O (stereo not drawn) | -3.9 | -2.0% | 0 | 7 | -7% | -31 | -13
COc1ccc(CCNC(=O)CCC(=O)Nc2ccccc2[N+](=O)[O-])cc1OC | -2.6 | -0.3% | -3 | 11 | 15% | 29 | 0
CC(=O)Nc1cnc(-c2cc(C)c(O)c(C)c2)cn1 | -4.0 | 5.1% | -13 | -3 | nt | nt | -4
COCCCNC(=O)c1ccc(Cn2c(=O)c3ccccc3n(Cc3ccccc3C#N)c2=O)cc1 | -0.5 | 7.2% | 18 | 0 | 6% | -17 | 10
CN(Cc1cccs1)C(=O)CCc1c[nH]c2ccccc12 | -4.1 | 1.2% | -6 | -10 | 5% | 13 | -6
CC(C)[C@H](NC(=O)C1CC(=O)N(c2ccc3c(c2)OCCO3)C1)C(=O)NC1CCCC1 (stereo partly drawn) | 2.7 | -0.8% | 6 | 4 | 13% | -1 | -1
CCC(=O)N(Cc1ccc(S(N)(=O)=O)cc1)C1CC(=O)N(c2ccc(OC)cc2)C1=O (stereo not drawn) | -1.6 | 0.3% | 7 | 4 | -9% | 2 | -3
Cc1c(C)n(CCN(C)C)c2ccc(C(=O)OCCN(C)C)cc12 | -1.8 | -1.2% | -6 | -5 | 2%&4% | -4 | -14
CC(C)c1ccc(C2C3=C(CC(C)(C)CC3=O)NC3=C2C(=O)c2ccccc23)cc1 (stereo not drawn) | -6.1 | 1.3%[38.3 µM] | ? | ? | -16% | 6 | -22
O=C(Nc1ccccc1N1CCN(C(=O)c2ccc(Cl)cc2)CC1)c1cc2ccccc2o1 | -5.9 | -0.5% | -7 | -4 | 11% | -26 | -10
C=CCC[C@@H](Cc1ccc(F)cc1)C(=O)OC[C@@H](NC(=O)[C@@H](CC=C)CC(=O)N[C@H](CO)Cc1ccccc1)C(C)(C)C | -3.1 | 5.8% | 5 | nt | nt | nt | -11
O=C(NCc1ccccc1)c1cc(C2COCCN2C(=O)c2cccs2)on1 (stereo not drawn) | -3.1 | 1.6% | -1 | 3 | nt | nt | 0
COc1cccc2[nH]c3c(=O)n(CCCN4CCOCC4)cnc3c12 | -5.0 | 2.0% | -5 | nt | 3% | 30 | -16
Cc1ccc(Cc2cc(C)n[nH]c2=O)cc1 | -6.7 | -3.2% | 0 | -2 | 14% | -35 | -7
Cc1cccc(-c2nsc(SCC(=O)NCc3ccco3)n2)c1 | -1.8 | 3.4% | -6 | -2 | ? | -7 | -4
Cn1nc(C(F)(F)F)c(/C=N/OC(=O)c2ccccc2)c1Cl | -1.2 | 0.6%[38.3 µM] | 3 | 1 | 15% | nt | -8
CCc1c(C)c2ccc(OCC(=O)NCC3CCC(C(=O)O)CC3)cc2oc1=O (stereo not drawn) | 2.9 | -0.2% | -6 | 5 | 22% | 15 | -8
Cn1c(-c2ccccc2)c(Sc2ccccc2)c2cc(-c3ccc4[nH]ccc4c3)ccc21 | nt | -0.1% | 2 | 4 | nt | nt | nt

A stretch of the results above, as a working copy:
SMILES | D2 agonist | PINK1 modulator | Six1-Eya2 blk | CtBP-E1A inh | Sfp inh | TRPV1 potentiator | D2 potentiator
CN(Cc1ccccc1)C(=O)c1ccc(NC(=O)Cc2ccc(NC(=O)C3CCN(C(=O)C4CCC4)CC3)cc2)cc1 | -1.2 | 1.3% | 2 | -1 | nt | nt | nt
C=CCn1c(SCc2ccc(F)cc2)nc2c1c(=O)[nH]c(=O)n2C | 1.3 | 1.4% | -2 | 2 | -17% | 2 | -5

Next results
SMILES | D2 agonist | PINK1 modulator | Six1-Eya2 blk | CtBP-E1A inh | Sfp inh | TRPV1 potentiator | D2 potentiator
C/C(=N/N=C1\SCC(=O)N1c1ccccc1)c1ccc(C)cc1 | -2.1 | -1.1% | 0 | -1 | -9% | nt | -5
Cn1c(=O)n(C)c2cc([N+](=O)[O-])c(N3CCN(C(=O)c4ccccc4Cl)CC3)cc21 | 0.0 | nt | -24 | 6 | 8% | 17 | -25
CC(=O)Nc1ccc(NC(=O)C(C)n2c3ccccc3c3nc(=O)cc(C)n32)cc1 (stereo not drawn) | -6.3 | 3.1% | 1 | -7 | 18% | 2 | 1
O=C(COC(=O)c1ccc(Cl)c(S(=O)(=O)N2CCc3ccccc3C2)c1)Nc1ncc(Cl)cc1Cl | -4.0 | 7.2% | -3 | -5 | 13% | 12 | -5
COc1ccc(CN2C(=O)CNC2=S)cc1 | -4.2 | 1.7% | 6 | 0 | 5% | 11 | -12
CC(C)(C)C(=O)COC(=O)c1ccccc1O | -1.5 | -1.3% | 0 | 2 | -3% | -5 | -21
O=C(Nc1ncc2c(n1)CC(c1cccc(Cl)c1)CC2=O)c1ccco1 (stereo not drawn) | -1.5 | 5.4% | 6 | 2 | -7% | -23 | 8
O=C(c1ccc(Br)o1)N1N=C(c2ccc(Cl)cc2)CC1c1ccco1 (stereo not drawn) | -6.9 | -0.2% | -17 | -6 | 40µM* | 3 | -27
COc1ccc(C(=O)NCCS(=O)(=O)NCc2cccs2)cc1 | -3.3 | 5.1% | 6 | 1 | nt | -3 | -3
O=C(O)C#Cc1cccc2ccccc12 | -1.6 | 1.3% | 6 | 2 | 24% | 1 | -3
COCCNC(=O)c1onc(CSc2cc(C)cc(C)c2)c1C(=O)NCCOC | -0.2 | 2.4% | 7 | nt | 5% | -12 | -3
Cc1ccc(/C=N/n2c(-c3ccncc3)n[nH]c2=S)s1 | 7.0 | -0.2% | -13 | 1 | 63µM* | -4 | -12
CCOc1ccc2[nH]c(=O)c(CN(Cc3ccco3)C(CC)c3nnnn3Cc3ccccc3)cc2c1 (stereo not drawn) | 2.1 | -1.2% | -11 | -5 | ? | -6 | 12
Cn1nnc(NC(=O)C(c2ccccc2)c2ccccc2)n1 | 2.1 | -1.0%[38.3 µM] | 1 | 1 | 1% | 6 | -1
CC(C)(C)NC(=O)NCc1ccco1 | -4.0 | 1.3% | 3 | 2 | 4% | -13 | -3
COc1cccc(-c2nc(N3CCCCC3C)c3ccccc3n2)c1O (stereo not drawn) | -2.5 | -1.8% | ? | -29 | -18% | -1 | 28
CC(C)(C)Nc1nc(OCC#N)nc(N2CCCCC2)n1 | -9.1 | 3.8% | 1 | nt | -9% | 22 | -12
CC(C)CC(NC(=O)C1CCC(C)CC1)C(=O)NCc1cccnc1 (stereo not drawn) | -1.9 | -3.3% | 2 | -1 | 17% | -5 | -8

Some of these compounds in order of length of the SMILES, largest number first:
SMILES | D2 agonist | PINK1 modulator | Six1-Eya2 blk | CtBP-E1A inh | Sfp inh | TRPV1 potentiator | D2 potentiator
CCOc1ccc2[nH]c(=O)c(CN(Cc3ccco3)C(CC)c3nnnn3Cc3ccccc3)cc2c1 (stereo not drawn) | 2.1 | -1.2% | -11 | -5 | ? | -6 | 12
COCCNC(=O)c1onc(CSc2cc(C)cc(C)c2)c1C(=O)NCCOC | -0.2 | 2.4% | 7 | nt | 5% | -12 | -3
CC(C)CC(NC(=O)C1CCC(C)CC1)C(=O)NCc1cccnc1 (stereo not drawn) | -1.9 | -3.3% | 2 | -1 | 17% | -5 | -8
COc1cccc(-c2nc(N3CCCCC3C)c3ccccc3n2)c1O (stereo not drawn) | -2.5 | -1.8% | ? | -29 | -18% | -1 | 28
COc1ccc(C(=O)NCCS(=O)(=O)NCc2cccs2)cc1 | -3.3 | 5.1% | 6 | 1 | nt | -3 | -3
Cn1nnc(NC(=O)C(c2ccccc2)c2ccccc2)n1 | 2.1 | -1.0%[38.3 µM] | 1 | 1 | 1% | 6 | -1
CC(C)(C)Nc1nc(OCC#N)nc(N2CCCCC2)n1 | -9.1 | 3.8% | 1 | nt | -9% | 22 | -12
CC(C)(C)C(=O)COC(=O)c1ccccc1O | -1.5 | -1.3% | 0 | 2 | -3% | -5 | -21
COc1ccc(CN2C(=O)CNC2=S)cc1 | -4.2 | 1.7% | 6 | 0 | 5% | 11 | -12
O=C(O)C#Cc1cccc2ccccc12 | -1.6 | 1.3% | 6 | 2 | 24% | 1 | -3
